GIV-Gai inh: inhibitors of GIV GBA-motif binding to rat Galpha-i3. 210,000 tested, 0.42% active. Galpha-i3/FITC-GIV peptide fluorescence polarization, 90 min; active compounds read low; scaled: aluminum fluoride 0%, vehicle 100%. P08753. percent of control (FP), % (concentration not given with the values);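 active = replicate mean at 85% of control or lower, very high polarization wells dropped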;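 also: wells of about 15 µL received 100 nL stock; the first replicate is given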
Target sequence (P08753 whole entry, looked up): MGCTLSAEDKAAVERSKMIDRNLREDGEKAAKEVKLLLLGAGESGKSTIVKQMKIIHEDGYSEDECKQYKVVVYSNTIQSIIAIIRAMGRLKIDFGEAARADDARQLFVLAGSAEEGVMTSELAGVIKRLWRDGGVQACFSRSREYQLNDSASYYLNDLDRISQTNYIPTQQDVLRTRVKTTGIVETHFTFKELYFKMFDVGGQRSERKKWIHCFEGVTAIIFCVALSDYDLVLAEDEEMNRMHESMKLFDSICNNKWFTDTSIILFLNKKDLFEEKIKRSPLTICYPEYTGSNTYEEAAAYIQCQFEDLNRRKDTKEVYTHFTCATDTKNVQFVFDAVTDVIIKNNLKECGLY
HCMV UL50-53 inh: cytomegalovirus nuclear egress complex inhibition; AID 1918969; HTRF UL50-UL53 interaction, normalized percent inhibition; inhibition, % (no concentration beside the values); 190,000 tested, 0.15% active;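 active = both replicates at 50% or more, plus weaker picks with an unusually low signal ratio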;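 also: stock transfer was 100 nL into about 20 µL; 0% = negative control wells and 100% = wells with untagged competitor protein; inactives centre near -12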
Sa growth 42C: blocks Staphylococcus aureus growth; S. aureus RN4220 growth, OD600, 20 h, 42 °C; active compounds read low; relative growth, % (concentration not given with the values); 170,000 tested, 0.53% active; AID 720641;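 active = growth at 42 °C up to 50% and 20 or more points under that at 30 °C, or under 10% at both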;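 also: 300 nL library stock went into each well; scaled to the means of positive and negative controls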
Sa growth 42C second temp: also measured in Sa growth 42C; calls as there; relative growth, %; measured here: growth at 30 °C;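 optical density after 20 h as mean of two plates; 100% = untreated growth and lower means inhibition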
* hit, by the source's call; x = not tested or not shown; & = joins results of further samples.

no. | compound | GIV-Gai inh | HCMV UL50-53 inh
1 | COc1ccc(CNC(=O)c2c(Nc3ccccc3C)sc(C(=O)c3ccccc3)c2N)cc1 | 102 | x
2 | COc1cc(NC(=O)c2csc(Br)c2OC)cc(OC)c1OC | 107 | 6
3 | O=C(O)C(CO)N=Cc1c(O)c2ccccc2oc1=O (stereo not given) | 108 | -8
4 | CC(C)CCN1C(=O)c2ccc(-c3ccccc3)n2CC1(C)C(=O)NC1CCC(C)CC1 (stereo not given) | 103 | -12
5 | Cc1cnc(NC(=O)c2ccc(OCC3CCCO3)cc2)s1 (stereo not given) | x | 9
6 | Cc1ccc(Cn2nnc3c(=O)n(Cc4ccc(C(F)(F)F)cc4)cnc32)cc1 | 100 | x
7 | O=C(c1ccco1)N1CCCN(C(=O)c2ccco2)CC1 | 91 | -2
8 | COc1ccc(NC(C)=O)cc1NC(=O)c1cc2cccnc2n(C)c1=O | 105 | -32
9 | COc1cccc(N2CCN(C(=O)c3cc(C(F)(F)F)n(C)n3)CC2)c1 | 103 | -18
10 | O=C(NC1CCCC1)C(c1ccccc1)N(CC1CCCO1)C(=O)Cn1nnc2ccccc21 (stereo not given) | 102 | -29
11 | O=C(c1ccccc1)c1nnc(-c2ccccc2)s1 | x | -62
12 | C=CCNC(=S)N1CCN(C(=S)NCC=C)CC1 | 102 | -9

no. | Sa growth 42C | Sa growth 42C second temp
1 | 101 | 95
2 | 106 | 81
3 | 100 | 86
4 | x | x
5 | 112 | 92
6 | 95 | 94
7 | 91 | 93
8 | 87 | 90
9 | x | x
10 | 105 | 85
11 | 96 | 75
12 | 97 | 96

Additional entries
no. | compound | GIV-Gai inh | HCMV UL50-53 inh
13 | Fc1ccc2[nH]c(CN3CCN(c4ccccn4)CC3)cc2c1 | 109 | -5
14 | Cc1cccc(C)c1NC(=O)CN1C(=O)c2ccccc2S1(=O)=O | 110&107 | -14&11
15 | COc1ccc(N(C)C(=O)c2cnc(N3CCN(c4ncccn4)CC3)c3ccccc23)cc1 | 97 | x
16 | Oc1ccc(C=Nc2ccc(N3CCOCC3)cc2)cc1O | x | -29
17 | O=C(Nc1cccc(O)c1)c1noc2c1CCCC2 | 99 | -1
18 | CN1Cc2cccc(C(=O)O)c2C1=O | 98 | -6
19 | Cc1cc(Oc2ccccc2F)nc(N)n1 | 100 | -15
20 | O=c1oc2ccc(F)cc2cc1-c1nc(-c2cccs2)no1 | 112 | x
21 | CCOc1ccc(C(=O)NCC(=O)N2CCCC2)cc1 | x | 2
22 | Cc1ccc(C2=NS(=O)(=O)N(C)C(C(=O)Nc3cc(C)on3)=C2)cc1 | 104 | -81
23 | CCOC(=O)c1sc(N)c(C#N)c1COC(=O)c1ccc2c(=O)n3c(nc2c1)CCC3 | x | -10
24 | Cc1cc(NC(=O)c2cc(-c3ccc(F)cc3)on2)nn1Cc1ccc(Cl)cc1 | 105 | -15

no. | Sa growth 42C | Sa growth 42C second temp
13 | x | x
14 | 96 | 99
15 | 98 | 91
16 | 84 | 80
17 | 108 | 85
18 | 104 | 89
19 | 91 | 94
20 | 106 | 90
21 | 102 | 96
22 | x | x
23 | 62 | 83
24 | 98 | 88

More compounds.
no. | compound | GIV-Gai inh | HCMV UL50-53 inh
25 | CNC(=O)c1c(NC(=O)c2csnn2)sc2c1CCCC2 | 101 | 1
26 | CCN1C(=O)/C(=C\C=C2/N(CC)c3ccc(C(=O)OC)cc3N2CC)SC1=S | -74* | -44
27 | Cc1cccc(N(Cc2ccccc2)C(=O)CSc2nc(N)nc(N)n2)c1 | x | -13
28 | CCc1cccc(NC(=O)CSc2ncc3c(n2)-c2ccc(Cl)cc2N(Cc2ccccc2)S3(=O)=O)c1 | 100 | x
29 | CCCS(=O)(=O)N1CCC(c2c(C)n(Cc3ccccc3C)c3ccccc23)CC1 | 107 | 1
30 | O=C(c1ccc2c(=O)n3c(nc2c1)CCCCC3)N1CCCc2ccccc21 | x | -18
31 | Cn1c(=O)c(N2CCC(C(=O)NCCc3c[nH]c4ccccc34)CC2)nc2cccnc21 | 106 | -61
32 | Cc1ccc(S(=O)(=O)NC(c2ccccc2)c2nnc(-c3ccccc3)o2)cc1 (stereo not given) | 104 | -5
33 | Cc1ccc(SCC(=O)Nc2nnc(CCS(=O)(=O)c3ccc(Cl)cc3)s2)cc1 | 105 | -9
34 | CCCCCOc1c(Cl)cc(C(=O)N(Cc2ccc(C)o2)C2CCS(=O)(=O)C2)cc1Cl (stereo not given) | 105 | -5
35 | COc1ccc(C2C=C(c3ccccc3)Nc3nc(NC(=O)/C=C/c4ccccc4Cl)nn32)cc1 (stereo not given) | 109 | -1
36 | CCc1c(CCNC(=O)Nc2ccccc2)csc1C | 100 | -67

no. | Sa growth 42C | Sa growth 42C second temp
25 | x | x
26 | 87 | 70
27 | 98 | 97
28 | 85 | 94
29 | x | x
30 | 98 | 90
31 | x | x
32 | 100 | 92
33 | x | x
34 | 92 | 75
35 | 89 | 74
36 | x | x

Other results follow.
no. | compound | GIV-Gai inh | HCMV UL50-53 inh
37 | COC(=O)C(CO)NC(=O)c1ccccc1 (stereo not given) | 104 | -11
38 | O=C(NCCc1ccccc1)c1cnc2sc(N3CCCC3)nn2c1=O | 101 | x
39 | COc1ccc(CCn2c(=O)c3cccnc3n(CC(=O)Nc3cccc(C)c3)c2=O)cc1OC | 106 | -29
40 | CC(=O)Nc1ccc(C(O)(C(F)(F)F)C(F)(F)F)cc1 | x | -2
41 | Clc1ccc2nc(-n3nc4ccccc4n3)nc(-c3ccccc3)c2c1 | x | -1
42 | O=C(Cn1c(-c2cccs2)cc2ccccc21)NCC1CCCO1 (stereo not given) | 103 | -36
43 | O=C1CSC(N(c2ccccc2)c2ccccc2)=N1 | 96 | 3
44 | COc1ccc(NC(=O)Cn2c(=O)c(C(F)(F)F)nc3ccccc32)cc1 | 100 | -5
45 | CCOC(=O)CSc1nc2ccccc2c(=O)n1C1CCCC1 | 101 | 3
46 | O=S(=O)(NCCCn1ccnc1)c1cc(Cl)ccc1Cl | x | -10
47 | CCn1c(=O)c2sccc2n2c(CCCC(=O)Nc3ccc(Oc4ccccc4)cc3)nnc12 | 109 | x
48 | O=S(=O)(c1ccccc1Cl)N1CCN(c2nc3ccccc3n3cccc23)CC1 | 100 | -24

no. | Sa growth 42C | Sa growth 42C second temp
37 | 101 | 88
38 | 101 | 90
39 | 105 | 90
40 | 91 | 86
41 | 89 | 99
42 | 86 | 77
43 | 111 | 95
44 | x | x
45 | 102 | 83
46 | 98 | 89
47 | 107 | 95
48 | x | x

2 records drawn at random from those above, as already listed:
no. | compound | GIV-Gai inh | HCMV UL50-53 inh
37 | COC(=O)C(CO)NC(=O)c1ccccc1 (stereo not given) | 104 | -11
44 | COc1ccc(NC(=O)Cn2c(=O)c(C(F)(F)F)nc3ccccc32)cc1 | 100 | -5

no. | Sa growth 42C | Sa growth 42C second temp
37 | 101 | 88
44 | x | x

The main list resumes; the 7 compounds before the break are reprinted first.
no. | compound | GIV-Gai inh | HCMV UL50-53 inh
42 | O=C(Cn1c(-c2cccs2)cc2ccccc21)NCC1CCCO1 (stereo not given) | 103 | -36
43 | O=C1CSC(N(c2ccccc2)c2ccccc2)=N1 | 96 | 3
44 | COc1ccc(NC(=O)Cn2c(=O)c(C(F)(F)F)nc3ccccc32)cc1 | 100 | -5
45 | CCOC(=O)CSc1nc2ccccc2c(=O)n1C1CCCC1 | 101 | 3
46 | O=S(=O)(NCCCn1ccnc1)c1cc(Cl)ccc1Cl | x | -10
47 | CCn1c(=O)c2sccc2n2c(CCCC(=O)Nc3ccc(Oc4ccccc4)cc3)nnc12 | 109 | x
48 | O=S(=O)(c1ccccc1Cl)N1CCN(c2nc3ccccc3n3cccc23)CC1 | 100 | -24
49 | COc1cccc(C2C(C#N)=C(N)OC3=C2C(=O)CC(c2ccccc2)C3)c1OC (stereo not given) | 100 | -6
50 | COc1ccc(S(=O)(=O)c2c(SC)nn(CC(=O)Nc3cccc(C)c3C)c2N)cc1 | 97 | x
51 | Cc1cccc(C#CCN2CCCCC2)c1 | 103 | x
52 | Cc1ccccc1Cn1c2ccccc2c2cnn(CC(=O)NC(C)CCc3ccccc3)c(=O)c21 (stereo not given) | 102 | -17
53 | CCOCC(=O)Nc1c(C(=O)Nc2ccc(F)c(F)c2)oc2ccccc12 | 101 | -16
54 | Cc1ccc2nc(CNc3ccc(Cl)cc3)cc(=O)n2c1 | x | -3
55 | O=C(CSc1nc2ccccc2n1CC(=O)N1CCCC1)Nc1ccccc1 | 102 | -2
56 | CCOC(=O)N1CCN(C(=S)NC(=O)c2cccc(OC)c2)CC1 | x | 1
57 | Cc1cc(NC(=O)c2cc(C(C)C)[nH]n2)ccc1Br | 109 | 1
58 | COc1ccc(-c2cc(C(=O)OC(C)C(=O)c3ccccc3)c3cccc(Cl)c3n2)cc1 (stereo not given) | 102 | -26
59 | CC1SC(c2cccnc2)N(c2cc(C(F)(F)F)cc(C(F)(F)F)c2)C1=O (stereo not given) | 104 | -8
60 | COc1cc(NC(=O)CC(C)(C)C)c(OC)cc1Cl | x | -9

no. | Sa growth 42C | Sa growth 42C second temp
42 | 86 | 77
43 | 111 | 95
44 | x | x
45 | 102 | 83
46 | 98 | 89
47 | 107 | 95
48 | x | x
49 | x | x
50 | 101 | 81
51 | 107 | 92
52 | 119 | 84
53 | 108 | 90
54 | 95 | 94
55 | 112 | 73
56 | 95 | 98
57 | 120 | 101
58 | 97 | 77
59 | 104 | 97
60 | 105 | 87

The list continues:
no. | compound | GIV-Gai inh | HCMV UL50-53 inh
61 | COC(=O)c1ccccc1NC(=O)CSc1nnc2cc(C)c3cc(C)cc(C)c3n12 | 107 | -33
62 | S=c1[nH]nc(COc2ccccc2)o1 | 102&94 | -21&-8
63 | CC1=C(C(=O)OCC(F)(F)C(F)(F)F)C(c2ccc(Cl)c(Cl)c2)NC(=O)N1 (stereo not given) | 108 | -9
64 | CCN(CC)C(=O)Nc1cnc2ccccc2c1 | 103 | -41
65 | Nc1ccc(-c2nc3ccc(N)cc3s2)cc1 | 103 | -43
66 | COc1ccc(N=Cc2c(O)ccc3oc4c(c23)CCCC4)cc1 | 110 | x
67 | COc1ccc(CCNC(=O)CCCCn2c(=O)c3ccccc3n(CC(=O)Nc3ccc(C)cc3C)c2=O)cc1OC | 101 | -12
68 | COC(=O)COC(=O)c1ccc(Oc2nc(NC(C)C)nc(NC(C)C)n2)cc1 | 105 | -12
69 | N#Cc1ccc(NC(=O)COC(=O)CCC2CCCCC2)cc1 | x | -24
70 | CC(=O)Oc1ccc(S(=NS(=O)(=O)c2ccccc2)c2ccc(OC(C)=O)cc2)cc1 | 99 | 37
71 | O=C(NCCC1=CCCCC1)c1cc(-c2ccco2)[nH]n1 | 113 | x
72 | CCCCn1c(=N)n(CC(O)COc2ccccc2)c2ccccc21 (stereo not given) | 103 | 3

no. | Sa growth 42C | Sa growth 42C second temp
61 | 102 | 82
62 | 105&108 | 90&70
63 | x | x
64 | 103 | 79
65 | 96 | 85
66 | 115 | 87
67 | 109 | 91
68 | x | x
69 | 106 | 91
70 | 110 | 88
71 | 105 | 77
72 | 100 | 67

The results go on:
no. | compound | GIV-Gai inh | HCMV UL50-53 inh
73 | Cc1[nH]c(C)c(S(=O)(=O)N2CCC(C(=O)Nc3cc(F)ccc3F)CC2)c1C(=O)N1CCCC1 | 105 | 20
74 | O=C1/C(=C/c2ccccc2OC(=O)c2cccnc2Cl)Sc2ccccc21 | 107 | -27
75 | CC(c1ccccc1)N1C(=O)c2ccncc2C1=O (stereo not given) | 110 | -46
76 | Cc1cc(C)c(Cn2cccc2C2=NC(C)CO2)c(C)c1 (stereo not given) | 98&102 | -12&-18
77 | CCC1CCCCN1CCCNC(=O)c1c(O)nc2cc(C)ccn2c1=O (stereo not given) | 102 | -23
78 | COCCNC(=O)c1nn(-c2ccc(C)cc2)c(=O)n(C)c1=O | 101 | x
79 | Cc1cccc(-n2c(SCC(N)=O)nc3c(oc4ccccc43)c2=O)c1 | 102 | -36
80 | COc1ccc(CNS(=O)(=O)c2ccc(N3CCCCS3(=O)=O)cc2)cc1 | 99 | x
81 | O=C(CSCc1ccccc1Cl)Nc1c[nH]c(=O)[nH]c1=O | 106 | -4
82 | CC1=NNC(=O)C1CC(=O)N/N=C/c1ccc(N(C)C)cc1 (stereo not given) | 95 | -46
83 | COc1cccc(-c2noc(Cc3ccccc3)n2)c1 | 103 | -1
84 | NC(=O)CSc1nc2c([nH]c3ccccc32)c(=O)n1-c1cccc(Cl)c1 | 105 | x
85 | CCOC(=O)Cc1csc(NS(=O)(=O)c2ccccc2)n1 | 94 | -12
86 | COc1c2ccoc2nc2c(OC)c(O)ccc12 | 103 | -44
87 | O=C(CN1c2ccccc2S(=O)(=O)c2ccccc21)Nc1cccc(C(F)(F)F)c1 | 97 | x

no. | Sa growth 42C | Sa growth 42C second temp
73 | x | x
74 | x | x
75 | x | x
76 | 82 | 61
77 | 90 | 81
78 | 87 | 95
79 | 96 | 86
80 | 98 | 96
81 | 107 | 82
82 | 90 | 87
83 | 112 | 114
84 | 96 | 85
85 | 106 | 87
86 | 125 | 92
87 | 116 | 83

Compound activity: PubChem, ICCB-Longwood Screening Facility, Harvard Medical School

Hits appear at their usual frequency (roughly 0.83% active in at least one column).
